# Screening data: PubChem, Southern Research Specialized Biocontainment Screening Center
# Mtb betalactam: beta-lactam sensitization of Mtb H37Rv, H37Rv. M. tuberculosis H37Rv growth with meropenem, percent inhibition; hits of this screen are not shown here. inhibition, % at 25 µM. 0.27% of 330,000 active. AID 434955, 2010;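 active = about 74% or more and at least 40 points above the plate without the antibiotic, then above 30% in a dose series; inconclusive = first-round hits that could not be retested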;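 note: growth measured after seven days incubation then overnight dye step; 0% = bacteria only wells and 100% = bacteria with antibiotic; twin plates without the antibiotic show which effects depend on it; some results filed as inactive read as strong as hits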
# Starred values were filed as active, the others as inactive; ? = inconclusive. This is a subset. The share of hits here may be higher or lower than overall.
SMILES,Mtb betalactam
O=C(CCNC(=O)c1ccc([N+](=O)[O-])cc1)Oc1ccc(F)c(F)c1,2
COc1ccc(NC(=O)C2CC(=O)N(Cc3ccco3)C2)cc1Cl (stereo not given),-2
Cc1ccc(C)c(-n2nnnc2SCC(=O)NCC2CCCO2)c1 (stereo not given),6
CC(=O)c1ccccc1OCc1ccc(S(=O)(=O)Cc2ccccc2)cc1,-2
COc1ccc(C(=O)NCC(c2ccco2)N(C)C)cc1S(=O)(=O)NCc1ccc(Cl)cc1 (stereo not given),-7
CC1CC(C)CN(C(=O)COC(=O)CCC(=O)c2cccs2)C1 (stereo not given),-6
O=C1N[C@H](Cc2ccccc2)COC(=O)[C@@H](Cc2ccc(F)cc2)CC/C=C/C[C@H]1CC(=O)N(CCO)Cc1ccccc1,8
CC1(c2cccc(Br)c2)NC(=O)N(CC(=O)NC2CCCCC2)C1=O (stereo not given),4
CCCN(CC(=O)Nc1ccccc1C)C(=O)COc1c(C)cccc1C,4
Cc1cc(C)cc(CSc2ccc(S(=O)(=O)N3CCCC3)cn2)c1,16
Cc1noc(C)c1NC(=O)Nc1cccc2c1O[C@H](CN(C)S(=O)(=O)c1cccs1)[C@@H](C)CN([C@H](C)CO)C2=O,1
Cc1nc(Cc2nnc(SCC(=O)N3CCN(c4ccc(O)cc4)CC3)o2)cs1,1
CN1C2CCC1C(C(=O)O)C(OC(=O)c1ccccc1)C2 (stereo not given),-10
COc1ccc(C(=O)OCc2cc(=O)n3c(C)csc3n2)cc1F,-7
O=C(OCC(=O)c1ccc(Cl)cc1Cl)c1ccccn1,4
CN(C(=O)COC(=O)c1cnc(Cl)c(Cl)c1)C1CCCCC1,73
COc1ccc(O)c(-c2cc(-c3ccccc3Cl)[nH]n2)c1,82
COc1ccc(S(=O)(=O)N2CCN(c3ncnc4c(-c5ccccc5)nsc34)CC2)cc1,1
CCCn1nc(C(=O)Nc2ccc3c(c2)OCO3)c2ccccc2c1=O,11
COc1ccc(Br)cc1/C=C(\C(=O)O)c1ccc(S(=O)(=O)N2CCCCC2)s1,-1
C=CC[C@H](CC(=O)N(CCO)Cc1ccccc1)C(=O)N[C@@H](COC(=O)[C@@H](CC=C)Cc1ccc(F)cc1)Cc1ccccc1,-8
OCC[C@H]1C[C@H](O)[C@@H](O)[C@]2(Cc3ccccc3CCO2)O1,-6
COc1ccccc1/C=C/C(=O)N1CCN(S(=O)(=O)c2cccs2)CC1,-9
COc1ccccc1NC(=O)COC(=O)Cn1cnc2c1c(=O)n(C)c(=O)n2C,-6
COc1ccccc1Nc1nnc(SCC(=O)c2c(N)n(C3CC3)c(=O)[nH]c2=O)s1,5
# Following part:
SMILES,Mtb betalactam
CCNC(=O)N(CC)C[C@H]1N[C@@](Cc2ccccc2)(C(=O)OC)[C@H]2C(=O)N(Cc3ccccc3)C(=O)[C@@H]12,0
Cc1ccc(C(C)C)c(OCC(=O)NNC(=O)Cc2ccc(S(=O)(=O)N3CCOCC3)s2)c1,-3
Cc1ccc(NC(=O)C(C)N2CCN(C)CC2)cc1S(=O)(=O)N1CCOCC1 (stereo not given),-8
CC(C)N(CCNC(=O)c1ccc(OCC2CCCO2)cc1)C(C)C (stereo not given),-3
COC(=O)c1cc(OCC(=O)Nc2ccc3c(c2)CCC3)cc(C(=O)OC)c1,2
COc1ccc(NC(=O)c2oc3ccccc3c2CSC)cc1S(=O)(=O)N1CCOCC1,-1
CC1CC(C)CN(CC(=O)NNC(=O)COc2ccc(Cl)cc2)C1 (stereo not given),-7
CCN(CC(=O)Nc1ccc(NC(C)=O)cc1)C(=O)C1(c2ccccc2)CC1,-2
CCOC(=O)c1ccc(NC(=O)CNNC(=O)COc2ccccc2C)cc1,94
Cc1cc(Br)ccc1SCC(=O)NNC(=O)c1ccco1,-5
Cc1ccc(NC(=O)c2nc[nH]c2C(=O)N2CCN(C(=O)OC(C)(C)C)CC2)cc1,6
CCC1(c2cccc(O)c2)CCCCN(C)C1 (stereo not given),-8
CCCNC(=O)C1(CC2CC(c3ccccc3)=NO2)CCN(C(=O)C2CCCC2)CC1 (stereo not given),-4
O=C(Nc1cc(S(=O)(=O)N2CCCC2)ccc1Cl)c1cc(F)c(F)c(F)c1F,-2
O=C(COC(=O)CSc1ccc(F)cc1)NCc1ccco1,3
CN(CC(=O)NC1CCN(Cc2ccccc2)CC1)S(=O)(=O)c1ccc(Cl)cc1,13
O=C(NC1CCCCCCC1)c1c(Cl)cccc1Cl,6
CN(CC(=O)Nc1cccc(F)c1)CC(=O)Nc1ccccc1-c1ccccc1,-1
CC(OC(=O)c1ccc(Br)o1)C(=O)NCC1CCCCC1 (stereo not given),-1
CCN(CC)S(=O)(=O)c1ccc(O)c(C(=O)OCC(=O)NC23CC4CC(CC(C4)C2)C3)c1,-9
CC(C)(C)OC(=O)N1CCCC(C(=O)Nc2ccc(C(=O)N3CCCCC3)cc2)C1 (stereo not given),7
CS(=O)(=O)N1CCC(C(=O)Nc2cccc(F)c2)CC1,-4
N#CC1(NC(=O)CN2C(=O)NC(c3ccccc3)(c3ccccc3)C2=O)CCCC1,6
CC(NC(=O)c1ccccc1NC(=O)CN1CCN(c2ccccc2O)CC1)c1ccccc1 (stereo not given),1
COc1ccc(NC(=O)CN(C)C(=O)c2c(C)nn(Cc3ccc(C)cc3)c2Cl)cc1,4
# More records:
SMILES,Mtb betalactam
CN(Cc1cnn(Cc2ccccc2)c1)C(=O)c1cccc(S(=O)(=O)N2CCOCC2)c1,-4
Cc1ccc(NC(=O)CN2C(=O)NC(C)(c3ccc4c(c3)OCO4)C2=O)cc1 (stereo not given),4
COc1cc(C(=O)NNC(=O)COc2ccc(Cl)cc2)ccc1OCC(=O)N1CCOCC1,-2
CC(C)(C)C(CO)NC(=O)c1ccc[nH]1 (stereo not given),4
CC(NC(=O)Cc1ccc(S(=O)(=O)N2CCCCC2)cc1)c1ccccc1 (stereo not given),-6
CC(=O)Nc1ccc(S(=O)(=O)NCC(=O)OCC(=O)N2CC(C)OC(C)C2)cc1 (stereo not given),-8
COc1ccccc1NC(=O)C(C)N(C)CC(=O)Nc1cccc2ccccc12 (stereo not given),-7
CN(Cc1c(F)cccc1Cl)C(=O)C1=CC=CN2CCS(=O)(=O)N=C12,-9
CCn1nnc2cc(C(=O)N3CCC(C(=O)OC)CC3)ccc21,-1
O=C(OCc1ccc([N+](=O)[O-])cc1)c1cc2ccccc2oc1=O,97
COC(=O)[C@]1(C)N[C@H](CN(C)S(=O)(=O)c2ccc(-c3ccccc3)cc2)[C@@H]2C(=O)N(Cc3ccccc3)C(=O)[C@@H]21,9
C[C@@H]1O[C@@H](O[C@@H]2C=C3CCC4C(CC[C@]5(C)[C@@H](c6ccc(=O)oc6)CC[C@]45O)[C@@]3(C)CC2)[C@H](O)[C@H](O)[C@H]1O (stereo not given in full),0
CCCCn1nc(C(=O)NCc2ccccc2CN2CCCC2)c2ccccc2c1=O,-1
Cc1ccc(N)c(C)c1,-7
Cc1ccc(S(=O)(=O)N(C)C[C@@H]2Oc3c(NC(=O)C4CC4)cccc3C(=O)N([C@@H](C)CO)C[C@@H]2C)cc1,4
Cc1ccc(NS(=O)(=O)c2ccc(C(=O)NCc3ccc(S(N)(=O)=O)cc3)cc2)cc1,3
COc1ccccc1CNC(=O)CN1C(=O)NC2(CCCc3ccccc32)C1=O (stereo not given),-1
CC1CCN(C(=O)COC(=O)c2cc(Cl)c3c(c2)OCO3)CC1,-7
Cc1ccc(S(=O)(=O)Oc2ccc(/C=N/NC(=O)c3ccncc3)cc2)cc1,?
CCOc1ccccc1NC(=O)c1ccc(NC(=O)C2CCCO2)cc1 (stereo not given),19
CN(C(=O)CSCC(=O)Nc1ccc(Cl)cc1)C1CCCCC1,-5
O=C(COC(=O)COc1ccc(Cl)cc1Cl)NC1CCCCCC1,-2
O=C(COC(=O)/C=C/c1ccc(Cl)c(Cl)c1)NC1CCCC1,-11
CN1C(C(=O)Nc2ccc(C(=O)O)cc2)=C(O)c2ccccc2S1(=O)=O,-5
CC(C)(C)NC(=O)CN1CCCN(C(=O)COc2ccc(Cl)c3ccccc23)CC1,-6
# Carrying on:
SMILES,Mtb betalactam
COc1ccc2c3c1OC1[C@H](O)CCC4[C@@H](C2)N(C)CC[C@]314 (stereo not given in full),-1
CCN1CCN(C(=O)c2ccc(Cl)c(S(=O)(=O)N(C)c3ccccc3)c2)CC1,-6
Cc1ccccc1NC(=O)COC(=O)c1ccc(S(=O)(=O)N2CCCC2)cc1,3
O=S(=O)(NCC1COc2ccccc2O1)c1ccccc1F (stereo not given),-1
Cn1c(N)c(C(=O)COC(=O)COc2cccc(Br)c2)c(=O)n(C)c1=O,57
Cc1c(NC(C)C)c(=O)n(-c2ccccc2)n1C,3
Cc1noc(C)c1C(=O)Nc1nc(-c2cccs2)cs1,21
CCNC(=O)N1CCN(CCCC(c2ccc(F)cc2)c2ccc(F)cc2)CC1,4
Cc1cccc(OCCC(=O)NNC(=O)c2ccoc2C)c1,8
Cc1ccc(NC(=O)COc2cccc(Oc3ccccc3)c2)cc1S(=O)(=O)N1CCOCC1,-12
COc1ccc(S(=O)(=O)N2CCCCC2)cc1NC(=O)c1cncc(Br)c1,2
COc1ccccc1NC(=O)CSc1nnc(-c2ccoc2C)o1,-9
Cc1ccc(NC(=O)c2ccc(OCc3c(C)noc3C)cc2)cc1C,3
CC(=O)c1ccc(S(=O)(=O)NCC(=O)N2CCN(C/C=C/c3ccccc3)CC2)cc1,0
O=C1C=CN2CCOCC2C1 (stereo not given),4
CCn1nnc2cc(C(=O)Nc3cccc(S(=O)(=O)N(C)C)c3)ccc21,-1
C[C@H](CO)N1C[C@H](C)[C@@H](CN(C)C(=O)NC2CCCCC2)Oc2ccc(NC(=O)Cc3ccccc3)cc2C1=O,-6
Cc1nc(NC(=O)CSc2nnc(C3CC3)n2N)c(Cl)cc1Cl,-2
CC(=O)Nc1ccc(S(=O)(=O)N2c3ccc(F)cc3CCC2C)cc1 (stereo not given),-9
N#Cc1ccccc1OCC(=O)Nc1ccc2c(c1)OCCO2,-8
CC(C)C(NC(=O)CCNC(=O)c1ccc([N+](=O)[O-])cc1)c1nc2ccccc2[nH]1 (stereo not given),-5
NC(=O)c1ccc(NC(=O)COC(=O)CC2Sc3ccccc3NC2=O)cc1 (stereo not given),10
CC(=O)C[C@@H](O)CC(=O)[C@H]1OC(=O)CCCCCc2ccccc21,-3
COc1cc(/C=C2\SC(N)=NC2=O)ccc1OCC(=O)Nc1ccccc1C,27
O=CN1N=C(c2ccccc2)CC1c1ccc(Cl)cc1 (stereo not given),-5

# Taken from the entries so far (17 entries):
SMILES,Mtb betalactam
O=C(CCNC(=O)c1ccc([N+](=O)[O-])cc1)Oc1ccc(F)c(F)c1,2
COc1ccc(NC(=O)C2CC(=O)N(Cc3ccco3)C2)cc1Cl (stereo not given),-2
Cc1ccc(C)c(-n2nnnc2SCC(=O)NCC2CCCO2)c1 (stereo not given),6
CC(=O)c1ccccc1OCc1ccc(S(=O)(=O)Cc2ccccc2)cc1,-2
COc1ccc(C(=O)NCC(c2ccco2)N(C)C)cc1S(=O)(=O)NCc1ccc(Cl)cc1 (stereo not given),-7
CC1CC(C)CN(C(=O)COC(=O)CCC(=O)c2cccs2)C1 (stereo not given),-6
O=C1N[C@H](Cc2ccccc2)COC(=O)[C@@H](Cc2ccc(F)cc2)CC/C=C/C[C@H]1CC(=O)N(CCO)Cc1ccccc1,8
CC1(c2cccc(Br)c2)NC(=O)N(CC(=O)NC2CCCCC2)C1=O (stereo not given),4
CCCN(CC(=O)Nc1ccccc1C)C(=O)COc1c(C)cccc1C,4
Cc1cc(C)cc(CSc2ccc(S(=O)(=O)N3CCCC3)cn2)c1,16
Cc1noc(C)c1NC(=O)Nc1cccc2c1O[C@H](CN(C)S(=O)(=O)c1cccs1)[C@@H](C)CN([C@H](C)CO)C2=O,1
Cc1nc(Cc2nnc(SCC(=O)N3CCN(c4ccc(O)cc4)CC3)o2)cs1,1
CN1C2CCC1C(C(=O)O)C(OC(=O)c1ccccc1)C2 (stereo not given),-10
COc1ccc(C(=O)OCc2cc(=O)n3c(C)csc3n2)cc1F,-7
O=C(OCC(=O)c1ccc(Cl)cc1Cl)c1ccccn1,4
CN(C(=O)COC(=O)c1cnc(Cl)c(Cl)c1)C1CCCCC1,73
COc1ccc(O)c(-c2cc(-c3ccccc3Cl)[nH]n2)c1,82

# Other records follow.
SMILES,Mtb betalactam
C=CCn1c(COc2cccc(C)c2)nnc1SC(C)C(=O)NC1CC1 (stereo not given),-8
COc1ccc(CN(C)C(C)C(=O)Nc2ccc(S(=O)(=O)N3CCCCC3)cc2)c(OC)c1 (stereo not given),-6
Nc1nc(=S)c2[nH]cnc2[nH]1,80
NC(=O)c1ccc(-c2noc(-c3cccc(Cl)c3)n2)cc1,10
Cc1ccc2c(c1)C1CN(C)CCC1N2S(=O)(=O)c1cc(C(F)(F)F)ccc1Cl (stereo not given),2
CCOc1ccc(S(=O)(=O)N(C)c2ccc(OCC(=O)NCC3CCCCC3)cc2)cc1,4
CC(OC(=O)CCNS(=O)(=O)c1cccs1)C(=O)Nc1ccc(S(N)(=O)=O)cc1 (stereo not given),-4
Cc1ccc(S(=O)(=O)N2CCN(c3ccccc3)CC2)s1,3
Cc1ccc(C(=O)NCC(=O)NC2CC2)cc1,0
Cc1nn(-c2ccccc2)c(C)c1C(=O)OCC(=O)Nc1ccccc1C(F)(F)F,-7
Cc1ccc(S(=O)(=O)Nc2ccccc2F)cc1C(=O)N1CCCC1,0
C[C@H](CO)N1C[C@H](C)[C@@H](CN(C)C(=O)Nc2ccccc2)Oc2ccc(NS(=O)(=O)c3ccccc3)cc2C1=O,1
O=S(=O)(c1ccc(SCc2ccc(Br)cc2)nc1)N1CCOCC1,4
CC(=O)c1ccc(NS(=O)(=O)c2ccc3c(c2)CCC(=O)N3)cc1,-3
